# Screening data from PubChem BioAssay.
# RanGTP-Imp inh: disruptors of Ran-importin-beta complex formation – biochemical, FRET, CFP-Ran, YFP-importin-beta, homogeneous, primary screen | 1.1% of 300,000 active | AID 2216 | inhibition, % (no concentration beside the values) | cell-free CFP-Ran/YFP-importin-beta FRET ratio;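 active means most replicates above 15%; inconclusive means exactly half above 15%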;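 further: 0% = DMSO wells and 100% = Ran loaded with GDP instead of GTP; wells of about 40 µL received 100 nL stock; the first replicate is given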
# Beta cell apopt: beta cell apoptosis inhibition; INS-1E cytokine-induced death, ATP luminescence, 48 h; percent of positive-control rescue, neutral wells zero; protection from apoptosis, % (no concentration beside the values); 0.8% of 300,000 active;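 active means all replicates at 75% or more, or half of them and the mean; inconclusive means half reach 75% but not the mean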;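 further: 0% = cytokine-treated negative control wells and 100% = positive control rescue; higher means more ATP so stronger rescue from cytokine killing; wells of about 40 µL received 100 nL stock; the first replicate is given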
# ALR H2O2 inh: blocks human ALR sulfhydryl oxidase activity | P55789 | purified ALR, DTT oxidation, H2O2 HRP-luminol luminescence | inhibition, % (test concentration not listed) | 3.8% of 290,000 active;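 active means mean and each replicate at 75% or more; inconclusive means only one of the two met; inactive means neither met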;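 further: stock transfer was 7.5 nL into about 7.5 µL; 0% = neutral wells and 100% = wells with inactivated enzyme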
# Target sequence (P55789 whole entry, looked up): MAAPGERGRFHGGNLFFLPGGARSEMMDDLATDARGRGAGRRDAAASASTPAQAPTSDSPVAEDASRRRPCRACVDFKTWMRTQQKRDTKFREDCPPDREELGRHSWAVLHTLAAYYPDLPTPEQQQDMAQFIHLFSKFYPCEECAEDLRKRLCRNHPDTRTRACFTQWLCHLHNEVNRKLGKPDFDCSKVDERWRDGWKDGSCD
# rRNA inh HTS: selective bacterial rRNA inhibition in E. coli | E. coli WT GFP vs humanized-ribosome RFP mutants, fluorescence, 24 h; stronger effect = lower value; DMSO median 0, no signal -100 | GFP signal change (wild-type ribosome), % (no concentration beside the values) | 1.6% of 350,000 active;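 active means significant combined selectivity score with lowered wild-type GFP, culture density cut under 30%, mutant RFP and density less affected; inactive means any of these conditions unmet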; further: one replicate is shown; some compounds called inactive have numbers as strong as hits
# AF4-AF9 inh: inhibitors of human MLL-AF4/AF9 interaction; P42568; AlphaScreen, biotin-AF4 peptide binding to FLAG-AF9; inhibition, % at 10 µM; 0.47% of 350,000 active; AID 651704;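 active means every replicate reaching a set inhibition limit, whatever the replicate mean, cut at about 25% in these data; inconclusive means mean inhibition reaches that limit but some replicates miss it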;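 further: 0% = plate neutral control median and 100% = total signal loss; the record names both 10 and 1 µM as test concentration; the first replicate is given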
# Target sequence (P42568 whole entry, looked up): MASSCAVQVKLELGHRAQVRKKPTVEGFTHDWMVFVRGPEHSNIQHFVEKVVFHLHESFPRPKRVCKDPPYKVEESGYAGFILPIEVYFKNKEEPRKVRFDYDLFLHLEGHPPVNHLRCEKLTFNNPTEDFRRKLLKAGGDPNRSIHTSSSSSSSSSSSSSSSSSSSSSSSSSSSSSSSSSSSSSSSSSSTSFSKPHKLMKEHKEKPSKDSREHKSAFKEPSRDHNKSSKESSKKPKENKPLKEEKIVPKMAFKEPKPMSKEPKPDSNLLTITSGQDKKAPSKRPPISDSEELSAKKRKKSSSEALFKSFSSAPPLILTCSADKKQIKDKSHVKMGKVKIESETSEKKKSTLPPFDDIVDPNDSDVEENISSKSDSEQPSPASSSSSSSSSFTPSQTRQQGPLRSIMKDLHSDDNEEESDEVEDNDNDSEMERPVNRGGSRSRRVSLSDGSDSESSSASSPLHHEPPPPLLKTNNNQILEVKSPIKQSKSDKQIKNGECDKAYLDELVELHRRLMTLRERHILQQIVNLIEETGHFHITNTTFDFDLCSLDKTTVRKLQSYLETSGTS
# T cruzi inh: T. cruzi replication inhibition | T. cruzi beta-gal in NIH3T3, luminescence, 90 h | inhibition, % (test concentration not listed) | 1.4% of 300,000 active;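 active means mean inhibition across valid replicates above about 55%, limit read from the data; inconclusive means mean below that limit but half or more replicates reach it; inactive means mean below it, under half of replicates reach it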;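 further: signal also drops with host cell toxicity which is not excluded here; 0% = plate median of DMSO wells and 100% = zero luminescence signal; higher percent means less beta-gal luminescence so fewer parasites; stock transfer was 50 nL into about 50 µL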
# FGF22 binding: binders of recombinant human FGF22 by thermal shift | Q9HCT0 | calls only at 9.99 µM | 1.5% of 340,000 active | SYPRO orange fluorescence; percent of sucrose octasulfate shift, DMSO zero;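 active means melting point raised past a set limit in the mean and every replicate; inconclusive means no clear call; three in four hits are not shown here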
# Target sequence (Q9HCT0 whole entry, looked up): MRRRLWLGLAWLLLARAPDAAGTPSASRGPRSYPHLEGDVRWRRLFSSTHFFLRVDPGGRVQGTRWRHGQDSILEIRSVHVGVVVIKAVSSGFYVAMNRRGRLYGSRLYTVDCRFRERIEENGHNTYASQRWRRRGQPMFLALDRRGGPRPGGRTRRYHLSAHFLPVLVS
# Calb FLC: affects C. albicans growth with fluconazole; C. albicans CaCi-2 (fluconazole-resistant clinical isolate) + fluconazole, Alamar Blue growth, 48 h; growth inhibition, % (no concentration beside the values); 0.57% of 300,000 active;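 active means most replicates above 75%; inconclusive means exactly half above 75%; inactive means most below 75%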;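 further: all wells also contain fluconazole at 8 µg/ml as a sub-toxic cotreatment; 0% = median of DMSO wells and 100% = median of geldanamycin control wells; wells of about 8 µL received 7.5 nL stock; the first replicate is given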
# rRNA inh HTS OD600: also measured in rRNA inh HTS; calls as there; OD600 change, %; measured here: OD600 growth;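 optical density of the mix in the first replicate; 0 = DMSO median and -100 = no signal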
# rRNA inh HTS RFP: also measured in rRNA inh HTS; calls as there; RFP signal change, %; measured here: RFP humanized mutant strains;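 first replicate; 0 = DMSO median and -100 = no signal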
# The depositor's hits bear a star; i = inactive; ? = inconclusive; . = not tested or not shown. The list is partial (hit frequency here may not be typical).
# Start of the listing, in advance:
SMILES,RanGTP-Imp inh,Beta cell apopt,ALR H2O2 inh,rRNA inh HTS,rRNA inh HTS OD600,rRNA inh HTS RFP,AF4-AF9 inh,T cruzi inh,FGF22 binding,Calb FLC
CN(C(=O)Cn1cc(C(F)(F)F)cc(Cl)c1=O)C1CCS(=O)(=O)C1 (stereo not drawn),0.2,0,-18,11,9,3.6,-3.0,-3,i,0
COc1ccc(C(C(=O)NCCC(C)C)N(CCN2CCOCC2)C(=O)Cn2nnc3ccccc32)c(OC)c1 (stereo not drawn),-4.7,-6,-8,16,8,-1.4,-0.1,1,i,3

# Results, repeating the preview:
SMILES,RanGTP-Imp inh,Beta cell apopt,ALR H2O2 inh,rRNA inh HTS,rRNA inh HTS OD600,rRNA inh HTS RFP,AF4-AF9 inh,T cruzi inh,FGF22 binding,Calb FLC
CN(C(=O)Cn1cc(C(F)(F)F)cc(Cl)c1=O)C1CCS(=O)(=O)C1 (stereo not drawn),0.2,0,-18,11,9,3.6,-3.0,-3,i,0
COc1ccc(C(C(=O)NCCC(C)C)N(CCN2CCOCC2)C(=O)Cn2nnc3ccccc32)c(OC)c1 (stereo not drawn),-4.7,-6,-8,16,8,-1.4,-0.1,1,i,3
CC(N=c1ccccn1C(=O)Nc1cccc(C(F)(F)F)c1)c1ccco1 (stereo not drawn),1.6,5,1,.,.,.,.,-17,.,8
Cc1cc(C)cc(OC(=O)CN2C(=O)c3ccccc3C2=O)c1,-3.7,3,3,-1,-3,-2.7,-6.9,6,i,6
CC(C)(CO)NCc1cccc(OCc2ccc(Cl)cc2)c1,-0.7,2,.,.,.,.,.,28,.,-2
Cc1cc(C)n(-c2nc3ccccc3nc2N2CCOCC2)n1,3.9,-7,.,2,4,-1.2,9.7,3,i,16
Nc1ncn(C(=O)c2ccco2)n1,-1.8,-14,6,.,.,.,.,2,.,3
Cc1ccc(C2CC(c3ccco3)n3nc(N)nc3N2)cc1 (stereo not drawn),6.8,-6,29,5,15,0.9,-0.9,7,i,6
COC(=O)CCCCCN1C(=O)/C(=C\c2ccncc2)SC1=S,3.1,-20,5,-14,-14,-2.1,3.7,30,i,24
COc1ccc(CNC(=O)c2c(O)c3cccc4c3n(c2=O)CCC4)cc1OC,0.6,2,-3,.,.,.,.,7,.,-8
COc1cc(OC)cc(C(=O)OCc2cc3ccccc3[nH]c2=O)c1,0.5,-4,5,.,.,.,.,-18,.,-1
O=C(NCCc1ccccc1)c1ccc([N+](=O)[O-])cc1,-4.7,.,-5,.,.,.,.,-9,.,-12
O=C(/C=C/c1ccccc1Cl)N1CCN(c2ncccn2)CC1,-0.9,2,.,.,.,.,.,3,.,49
CCOc1ccc(S(=O)(=O)N2CCC(C(=O)NC3CCCCC3)CC2)cc1,0.1,4,0,14,19,0.7,0.2,0,i,0
Cc1c(-c2cccs2)[n+](=O)c2c(n1[O-])CCCC2,4.0,-7,-8,.,.,.,.,-8,.,5
O=C(c1ccc(Cn2cc(Br)cn2)o1)N1N=C(C(F)F)CC1(O)C(F)F (stereo not drawn),2.3,-2,-12,-9,-1,5.0,-2.2,7,i,-8
NC(=S)N1OC[C@@H]2COc3ccc4ccccc4c3[C@@H]21,-1.3,-6,-12,-14,-16,0.7,-4.4,1,i,-8
Cc1onc(C(=O)NN)c1C(=O)N1CCN(C(c2ccccc2)c2ccccc2)CC1,3.7,0,9,13,4,8.7,2.4,-8,i,-10
Cc1sc2nc(C(C)C)nc(SCC(=O)NC3CC3)c2c1C,0.1,5,4,3,2,-0.7,-2.6,14,i,3
CSc1nsc(SCC(=O)NCc2ccc(C)cc2)n1,-1.0,-3,-7,14,-4,1.4,1.2,-9,i,-4
C/C(N)=C(/C#N)C(=O)CSc1nc2cc(Cl)ccc2s1,2.8,-1,60,.,.,.,.,-12,.,26
Cc1ccc(CN2CC(C(=O)N3CCN(S(=O)(=O)c4c(F)cccc4F)CC3)CC2=O)cc1 (stereo not drawn),1.6,0,-16,0,3,-2.7,-0.3,0,i,-6
Nc1cc(=O)[nH]c(=O)n1-c1cccc(F)c1,3.0,-3,-5,14,12,0.7,-0.3,3,.,14
Cc1nn(-c2ccccc2)c(Cl)c1/C=N/NC(=O)CNc1n[nH]c(=O)[nH]c1=O,2.5,-4,-14,14,17,3.0,1.2,3,i,14
CC(NC(=O)c1ccc(N2CCCC2)c([N+](=O)[O-])c1)c1ccc(S(N)(=O)=O)cc1 (stereo not drawn),-0.8,1,98*,-3,-7,-0.1,-0.8,11,i,28
COc1ccc(CNCC2COc3ccccc3O2)cc1 (stereo not drawn),6.4,0,.,14,13,1.2,-14,20,i,-1
COC(=O)c1ccccc1NC(=O)C(CCS(C)(=O)=O)NC(C)=O (stereo not drawn),1.7,-6,.,.,.,.,.,-17,.,6
COCc1cc(=O)[nH]c(/N=C(\N)Nc2c(F)cccc2F)n1,-0.1,0,-7,6,11,-1.8,-5.9,0,i,0
COc1cc(NS(=O)(=O)c2c(C(=O)N3CCOCC3)c(C)n(C)c2C)cc(OC)c1OC,2.0,.,9,18,15,3.6,1.2,-5,i,-7
COC(=O)c1ccc2c(=O)n(Cc3ccc(C(=O)NC4CCCC4)cc3)c(=S)[nH]c2c1,-4.7,9,-2,.,.,.,.,7,.,-6
COc1cccc(/C=N/c2oc(-c3ccccc3)cc2C#N)c1O,1.5,-5,86*,.,.,.,.,-12,.,-5
CCN(C(=O)c1ccc(NC(=O)c2ccco2)cc1)c1ccccc1,1.3,5,-9,1,-6,-1.3,-2.2,-11,i,-1
CCOc1ccccc1NC(=S)N1CCC(c2nc3ccccc3o2)CC1,3.8,-3,-1,-26,-30,7.1,2.0,6,i,2
COc1ccc(/C=C/C(=O)NCC(=O)N/N=C(/C)c2ccco2)cc1,?,-10,7,3,2,-0.7,-1.9,-11,i,-17
O=C(CSc1nnc(NC(=O)c2ccccc2)s1)NCC1CCCO1 (stereo not drawn),-2.4,3,-4,4,6,1.2,-8.5,-1,i,0
COc1ccc(C(=O)c2oc3ccc(OC)cc3c2N)cc1,8.7,7,10,-7,-20,-5.5,-2.2,-2,i,1
NS(=O)(=O)c1ccc(N/C=C\C(=O)c2ccc(F)cc2)cc1,-3.5,-6,-11,-12,-14,-4.3,1.1,-6,i,-29
COc1cc(OC)cc(C(=O)Nc2ccc(S(=O)(=O)Nc3cnc4ccccc4n3)cc2)c1,4.1,-3,37,-44*,-9.4*,-13*,-1.6,4,i,21
COCCCN1C2=C(C(=O)CC(C)(C)C2)C(c2ccc(O)c(OC)c2)C2=C1CC(C)(C)CC2=O,0.1,-7,20,7,16,1.7,-8.7,9,i,-2
COCC(=O)N(Cc1cc2ccccc2[nH]c1=O)c1ccccc1OC,-3.7,-11,-23,.,.,.,.,6,.,25
COc1ccc(NCC(=O)Nc2cccc(S(=O)(=O)N3CCCC3)c2)cc1Cl,.,-8,-2,-5,2,9.1,2.2,.,i,.
N/C(=N\OC(=O)c1cccc(Br)c1)c1ccncc1,2.1,0,6,14,12,-1.4,-7.2,2,i,-25
COc1cc(C2c3c(oc4cc(C)c(C)cc4c3=O)C(=O)N2c2cc(C)ccn2)ccc1O (stereo not drawn),4.7,6,4,.,.,.,.,9,.,-7
O=C(COC(=O)c1ccc(S(=O)(=O)NCc2ccco2)cc1)c1ccccc1,-2.3,-4,-2,.,.,.,.,-8,.,12
CCOC(=O)c1c(C)[nH]c(C)c1S(=O)(=O)N(C)CC(=O)Nc1cccc(C)n1,2.3,-3,-6,3,7,5.9,-2.1,-17,i,-3
COc1ccc(CN(CCCN2CCOCC2)C(=O)Nc2ccccc2)cc1OC,4.1,-2,0,.,.,.,.,.,.,-9
CCc1ccc(NC(=O)C(=O)NNC(=O)COc2cccc(OC)c2)cc1,2.1,-8,3,.,.,.,1.4,4,i,-2
Cc1cccc(OCc2nnc(-c3ccc(F)cc3)o2)c1,.,-6,.,-7,12,2.6,-8.0,.,i,.
CCc1ccccc1N1CCN(S(=O)(=O)c2cc(OC)ccc2OC)CC1,2.6,-8,-54,-8,-12,0.7,.,.,.,4
Nc1ncnc2nc(SCCN3CCCCC3)[nH]c12,4.2,-2,-8,.,.,.,.,-4,.,6
CCOc1ccc(C(OC(=O)c2ccco2)C(=O)NCc2ccc(C)cc2)cc1 (stereo not drawn),3.0,-3,.,.,.,.,.,-8,.,-5
O=C(Nn1c(O)c(C=C2N=c3ccccc3=N2)sc1=S)c1ccc(Cl)cc1,33*,4,-4,.,.,.,.,-14,.,-8
CCOc1cc(/C=C2\N=C(C)OC2=O)cc(Br)c1OCCc1ccccc1,-1.8,-18,24,-24*,0.2*,-1.9*,12,-4,i,15
CC1=C(C(=O)N(C)CCC#N)C2(CCCCC2)OC1=O,-3.6,.,43,7,-5,-1.8,-13,0,i,-2
O=C(CCCc1nc(-c2ccc(Cl)cc2)no1)N1CCOCC1,0.5,-5,-12,.,.,.,.,-3,.,-22
COc1cc(/C=C/C(=O)O)cc(OC)c1O,-1.3,-1,42,0,-10,1.7,-5.7,-10,i,.
O=C(CC1C(=O)NCCN1C(=O)Nc1ccc(Cl)cc1)Nc1ccc(F)cc1 (stereo not drawn),1.6,-16,-2,-9,-7,-3.6,-30,-5,i,1
Fc1c(F)c(C(F)(F)F)c(F)c(F)c1N1CCN(c2ccc3nnc(C(F)(F)F)n3n2)CC1,6.4,5,3,.,.,.,.,-27,.,-4
O=C(c1cc2n(n1)C(C(F)(F)F)CC(c1ccc(F)cc1)N2)N1CCCC1 (stereo not drawn),-6.4,4,3,.,.,.,.,-13,.,10
COC(=O)c1cc(OC)c(OC)c(OC)c1NC(=O)c1ccc(S(=O)(=O)N(C)C)cc1,-1.7,-2,-3,.,.,.,.,-2,.,-3

# Remaining list, next part
SMILES,RanGTP-Imp inh,Beta cell apopt,ALR H2O2 inh,rRNA inh HTS,rRNA inh HTS OD600,rRNA inh HTS RFP,AF4-AF9 inh,T cruzi inh,FGF22 binding,Calb FLC
COc1ccc(S(=O)(=O)N(CC(=O)NCC2CCCO2)C2CCCCC2)cc1OC (stereo not drawn),2.0,5,1,-6,-5,-2.0,1.7,-16,i,19
N=C1C(c2nc3ccccc3s2)=C(O)CN1C1CCC(O)CC1 (stereo not drawn),0.3,-3,.,-8,2,2.1,1.8,-3,i,21
COc1ccccc1NC(=O)CSc1nnc(-c2ccccn2)o1,-1.2,-6,-13,-3,-6,-0.9,-10,-22,i,3
COc1cccc(NC(=O)c2ccc3c(c2)N(C)CCS3)c1,-0.6,-3,15,-11,-15,3.1,3.4,20,i,2
COc1ccccc1N1C(=O)[C@@H]2C(C(=O)CN3C(=O)c4ccccc4C3=O)=NN[C@@H]2C1=O,0.4,2,15,6,12,-1.8,-4.5,-20,i,-21
CCCCn1c(SCC(=O)NC2CCCC2)nnc1-c1ccco1,5.4,-7,-3,2,9,0.7,-8.1,13,i,-15
O=c1nccc(N/N=C/c2ccccc2O)[nH]1,3.3,125*,0,9,-3,-2.8,0.3,-1,i,7
CN(C)CCN(C(=O)c1ccc(S(=O)(=O)N(C)c2ccccc2)cc1)c1nc2cc3c(cc2s1)OCO3,-2.3,-1,0,9,-5,-0.6,0.2,57*,i,0
O=C(NN=Cc1ccccc1C(=O)O)c1cccc(S(=O)(=O)Nc2cccc(C(F)(F)F)c2)c1,.,-2,11,3,-5,0.0,-1.9,.,i,.
